AF4-AF9 inh – inhibitors of human MLL-AF4/AF9 interaction; P42568; AlphaScreen, biotin-AF4 peptide binding to FLAG-AF9; inhibition, % at 10 µM; 0.47% of 350,000 active; AID 651704;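 active = every replicate reaching a set inhibition limit, whatever the replicate mean, cut at about 25% in these data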;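 note: 0% = plate neutral control median and 100% = total signal loss; the record names both 10 and 1 µM as test concentration; the first replicate is given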
Target sequence (P42568 whole entry, looked up): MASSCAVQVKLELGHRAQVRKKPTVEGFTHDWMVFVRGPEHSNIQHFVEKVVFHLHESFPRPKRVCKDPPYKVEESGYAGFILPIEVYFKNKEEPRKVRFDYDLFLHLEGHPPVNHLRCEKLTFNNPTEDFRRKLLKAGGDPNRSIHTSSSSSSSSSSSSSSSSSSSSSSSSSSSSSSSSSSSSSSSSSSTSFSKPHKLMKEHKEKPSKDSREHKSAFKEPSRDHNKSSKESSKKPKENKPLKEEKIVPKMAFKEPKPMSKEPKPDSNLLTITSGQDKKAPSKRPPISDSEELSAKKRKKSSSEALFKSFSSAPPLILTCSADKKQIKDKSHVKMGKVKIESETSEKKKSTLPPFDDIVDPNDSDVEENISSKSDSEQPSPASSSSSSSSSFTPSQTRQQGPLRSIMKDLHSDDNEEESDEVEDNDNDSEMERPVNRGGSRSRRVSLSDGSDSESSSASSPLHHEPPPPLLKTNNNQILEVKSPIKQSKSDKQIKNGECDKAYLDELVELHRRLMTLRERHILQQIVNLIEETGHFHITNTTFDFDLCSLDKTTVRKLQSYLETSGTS
rRNA inh HTS – inhibitors of bacterial rRNA selective over humanized ribosomes | E. coli WT GFP vs humanized-ribosome RFP mutants, fluorescence, 24 h; active compounds read low; DMSO median 0, no signal -100 | GFP signal change (wild-type ribosome), % (concentration not given with the values) | 1.6% of 350,000 active | AID 720706;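 active = significant combined selectivity score with lowered wild-type GFP, culture density cut under 30%, mutant RFP and density less affected; inactive = any of these conditions unmet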; note: one replicate is shown; some compounds called inactive have numbers as strong as hits
Ecoli growth – inhibitors of Escherichia coli growth; OD600, 23 h; active compounds read low; OD600 absorbance (test concentration not listed); 0.21% of 330,000 active;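 active = OD600 absorbance below the run mean of sample wells minus 3.6 SD, in any replicate, cut at about 0.56 in these data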;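 note: stock transfer was 300 nL into about 60 µL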
HNF4A DNA FP – change in binding of human HNF4 alpha to DNA; P41235; HNF4a-FITC DNA binding, fluorescence polarization, 1 h; activity change, % at 10 µM; 0.3% of 360,000 active; AID 1224865; in the data active = activity change above about 30%, passing the limit was not always enough;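 note: controls were the assay level and a saturating level of protein; the project sought stronger binding though the title names inhibitors; some compounds called inactive have numbers as strong as hits; positive values seem to mean higher polarization but the record does not say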
FGF22 binding – shifts melting point of recombinant human FGF22. 1.5% of 340,000 active. calls only at 9.99 µM. Q9HCT0. AID 651658. recombinant FGF22 thermal shift, SYPRO orange fluorescence; percent of sucrose octasulfate shift, DMSO zero;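 active = melting point raised past a set limit in the mean and every replicate; three in four hits are not shown here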
Vif TR-FRET – HIV-1 Vif–A3G interaction blockers – biochemical, TR-FRET, GST-Vif 1-94, biotin-A3G peptide, dose response retest, primary screen (AID 1117319); TR-FRET GST-Vif / biotin-A3G peptide binding; higher % means a stronger effect; test concentration not given here; strong numbers were not always called active; inhibition, %, or IC50 in µM where a hit was titrated; 0.57% of 260,000 active;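 active = above the screen mean plus three standard deviations and confirmed in dose response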;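 note: Vif residues 1-94 fused to GST binding biotinylated APOBEC3G peptide 110-148; 0% = full assay without inhibitor and 100% = GST in place of GST-Vif; retest series ran down from 100 µM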
ALR inh – blocks human ALR sulfhydryl oxidase activity | P55789 | purified ALR, DTT oxidation, H2O2 HRP-luminol luminescence | inhibition, % (test concentration not listed) | 3.8% of 290,000 active | AID 485317;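 active = mean and each replicate at 75% or more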;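 note: stock transfer was 7.5 nL into about 7.5 µL; 0% = neutral wells and 100% = wells with inactivated enzyme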
Target sequence (P55789 whole entry, looked up): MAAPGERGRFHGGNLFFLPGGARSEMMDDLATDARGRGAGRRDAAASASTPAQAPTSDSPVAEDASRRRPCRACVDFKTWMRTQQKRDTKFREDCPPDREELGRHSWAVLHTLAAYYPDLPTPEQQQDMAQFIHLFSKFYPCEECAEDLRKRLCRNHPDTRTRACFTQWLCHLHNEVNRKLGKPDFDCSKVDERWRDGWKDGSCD
rRNA inh HTS OD600 – also measured in rRNA inh HTS; calls as there; OD600 change, %; measured here: OD600 growth;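 optical density of the mix in the first replicate; 0 = DMSO median and -100 = no signal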
rRNA inh HTS RFP – second read-out of rRNA inh HTS, no call of its own (marks repeat the call); RFP signal change, %; measured here: RFP humanized mutant strains;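 first replicate; 0 = DMSO median and -100 = no signal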
Starred values were filed as active, the others as inactive; i = inactive; nt = no result given; & = joins results of further samples. Not all compounds are listed; rates above refer to the full screens.

Short keys: A = AF4-AF9 inh; B = rRNA inh HTS; C = rRNA inh HTS OD600; D = rRNA inh HTS RFP; E = Ecoli growth; F = HNF4A DNA FP; G = FGF22 binding; H = Vif TR-FRET; I = ALR inh
O=S(=O)(Nc1nc2ccccc2s1)c1ccc(Br)s1
  A: -3.2	B: 6	C: 10	D: 37	E: 0.6	F: 11	G: i	H: 7%	I: 2
CC1=CC(C)(C)NC(=S)N1CCO
  A: 0.6	B: nt	C: nt	D: nt	E: 0.71	F: 3.9	G: i	H: 0%	I: nt
C[C@H](CO)N1C[C@H](C)[C@@H](CN(C)C(=O)c2ccncc2)Oc2ncc(/C=C/c3ccccc3)cc2C1=O
  A: 3.4	B: -6	C: 0	D: 1.3	E: nt	F: nt	G: i	H: nt	I: nt
Cc1cc(OCCn2cncn2)ccc1[N+](=O)[O-]
  A: 0.6	B: 8	C: 17	D: -5.1	E: 0.63	F: -2.8	G: i	H: nt	I: -5
C[C@@H](O)C#Cc1ccc([C@@H]2[C@H](CO)N3CCCCN(C(=O)Nc4ccccc4)C[C@@H]23)cc1
  A: -5.6	B: 7	C: 18	D: 1.9	E: nt	F: nt	G: i	H: nt	I: nt
COC(=O)C1=C(C(=O)OC)[C@@H]2Nc3ccccc3[C@@]23C[C@@H](C(=O)OC)N(C(C)=O)C3=N1
  A: 1.3	B: 5	C: 15	D: 10	E: nt	F: -0.4	G: i	H: -2%	I: 4
Cc1sc2nc(CN3CCOCC3)nc(NS(=O)(=O)c3ccc4c(c3)OCCO4)c2c1C
  A: nt	B: nt	C: nt	D: nt	E: 0.71	F: -0.5	G: nt	H: 5%&-3%	I: 12
Cc1ccccc1Cn1c(C)cc(C)c(C#N)c1=O
  A: 0.3	B: 13	C: 9	D: -5.5	E: 0.7	F: -2.9	G: i	H: 13%	I: -1
CC(C)CNC(=O)CSc1n[nH]c(=O)n1CCc1ccccc1
  A: -1.9	B: 3	C: 8	D: -1.0	E: 0.66	F: -1.9	G: i	H: -6%	I: -6
CN(C)C(=O)c1ccc(-c2ccccc2[C@@H]2[C@@H](CO)N(C(=O)C3CCC3)[C@H]2C#N)cc1
  A: -0.2	B: -1	C: 8	D: -5.5	E: nt	F: nt	G: i	H: nt	I: nt
Cc1ccc(NC(=O)n2ncc3c(C)cccc32)c(C)c1
  A: -3.5	B: 11	C: 23	D: 16	E: 0.7	F: 3.1	G: i	H: nt	I: nt
CCOC(=O)N1CCN(C(=O)C(CC(C)C)NS(=O)(=O)c2ccc(C)cc2)CC1 (configuration not stated)
  A: 11	B: 5	C: 2	D: -4.4	E: 0.71	F: 4.1	G: i	H: nt	I: nt
CCCCN(C(=O)COC(=O)c1nc2nccc(C)n2n1)C1CCS(=O)(=O)C1 (configuration not stated)
  A: 0.8	B: 3	C: 4	D: -1.6	E: 0.68	F: 2.1	G: i	H: -5%	I: -4
O=C(NCC[C@H]1CC[C@H](NS(=O)(=O)c2cccc(F)c2)[C@H](CO)O1)C1CCCC1
  A: -3.0	B: 0	C: 7	D: -1.9	E: nt	F: nt	G: i	H: nt	I: nt
O=C(CN1C(=O)C2CC=CCC2C1=O)NC1CCCCC1 (configuration not stated)
  A: 1.5	B: 9	C: 10	D: -1.5	E: 0.73	F: -2.8	G: i	H: 7%	I: 11
Cc1nn(C)cc1S(=O)(=O)Nc1ccccc1Br
  A: -1.2	B: 10	C: 14	D: 2.2	E: 0.67	F: -0.2	G: i	H: nt	I: 1
CCOc1ccc(CC(=O)NCC2(N3CCCCC3)CCCCC2)cc1
  A: 1.1	B: 6	C: 4	D: 4.1	E: 0.71	F: 0.2	G: i	H: -3%	I: -2
O=C(NCc1ccccc1)c1ccc(NC(=O)c2ccco2)cc1
  A: -0.6	B: 7	C: 16	D: 2.4	E: 0.71	F: 3.0	G: i	H: nt	I: nt
COc1ccc(Cn2cc(CN3CC(N4CCN(CCO)CC4)CS3(=O)=O)nn2)cc1 (configuration not stated)
  A: -1.0	B: 6	C: 15	D: -1.1	E: nt	F: -2.5	G: i	H: nt	I: nt
Cc1cccc(NC(=O)NC2(C(=O)NCc3ccco3)CCCCC2)c1
  A: 0.8	B: nt	C: nt	D: nt	E: 0.66	F: 2.7	G: i	H: 4%	I: -3
Cc1ccc(NS(=O)(=O)c2cc(-c3n[nH]c(=O)c4ccccc34)ccc2C)cc1
  A: nt	B: nt	C: nt	D: nt	E: nt	F: -0.6	G: nt	H: -4%	I: -3
Cc1ccc(OCC(=O)N/N=C/c2ccc([N+](=O)[O-])o2)cc1
  A: nt	B: nt	C: nt	D: nt	E: nt	F: 0.0	G: nt	H: 17%	I: -20
COc1cc(/C=C2/C(=O)N(c3ccc(C)c(C)c3)N=C2C)cc([N+](=O)[O-])c1O
  A: 9.2	B: 2	C: -1	D: -2.4	E: 0.67	F: 2.2	G: i	H: nt	I: 45
Cc1cc(Cl)ccc1NC(=O)C1CCN(S(C)(=O)=O)CC1
  A: -1.0	B: 8	C: -1	D: -4.9	E: 0.69	F: -3.8	G: i	H: 3%	I: -8
COc1ccc(S(=O)(=O)Nc2noc3ccccc23)cc1OC
  A: 0.1	B: 13	C: 8	D: 0.0	E: 0.67	F: 3.3	G: i	H: -9%	I: 13

One compound at a time, as listed above.
COC(=O)C1=C(C(=O)OC)[C@@H]2Nc3ccccc3[C@@]23C[C@@H](C(=O)OC)N(C(C)=O)C3=N1 is entered as AF4-AF9 inh: 1.3; rRNA inh HTS: 5; rRNA inh HTS OD600: 15; rRNA inh HTS RFP: 10; Ecoli growth: nt; HNF4A DNA FP: -0.4; FGF22 binding: i; Vif TR-FRET: -2%; ALR inh: 4
Cc1cc(Cl)ccc1NC(=O)C1CCN(S(C)(=O)=O)CC1 is entered as AF4-AF9 inh: -1.0; rRNA inh HTS: 8; rRNA inh HTS OD600: -1; rRNA inh HTS RFP: -4.9; Ecoli growth: 0.69; HNF4A DNA FP: -3.8; FGF22 binding: i; Vif TR-FRET: 3%; ALR inh: -8
O=C(NCc1ccccc1)c1ccc(NC(=O)c2ccco2)cc1 is entered as AF4-AF9 inh: -0.6; rRNA inh HTS: 7; rRNA inh HTS OD600: 16; rRNA inh HTS RFP: 2.4; Ecoli growth: 0.71; HNF4A DNA FP: 3.0; FGF22 binding: i; Vif TR-FRET: nt; ALR inh: nt

Continuation.
molecule	AF4-AF9 inh	rRNA inh HTS	rRNA inh HTS OD600	rRNA inh HTS RFP	Ecoli growth	HNF4A DNA FP	FGF22 binding	Vif TR-FRET	ALR inh
CCOC(=O)c1nnn(CC(=O)Nc2ccccc2OC)c1C(=O)OCC	nt	nt	nt	nt	0.7	-1.0	nt	11%	1
CCN1CCN(c2ccc(S(=O)(=O)N3CCCCC3)cc2NC(=O)/C=C/c2cc(OC)ccc2OC)CC1	5.2	3	4	1.4	0.74	1.9	i	nt	1
CCN(CC)Cc1c(C(=O)N/N=C/c2cccc(OCc3ccc(F)cc3)c2)nnn1-c1nonc1N	-19	4	7	6.7	nt	-1.7	i	nt	-2
COc1ccccc1OCC(O)CO (configuration not stated)	-3.3	-7	-2	-2.6	0.69&0.67	0.5	i	-1%	16
Cc1nc(NC(=O)c2ccccc2)sc1-c1cc(C(=O)O)nn1Cc1ccccc1	-1.9	-27	-34	-4.2	nt	-3.1	i	nt	nt
CCOc1ccc(-c2nn(-c3ccccc3)cc2/C=C(\C#N)S(=O)(=O)c2ccccc2)cc1C	nt	nt	nt	nt	0.84	0.3	nt	1%	-4
Cc1cc(C(=O)N/N=C/c2ccccc2[N+](=O)[O-])c(C)o1	-1.0	13	8	2.3	nt	1.5	i	nt	48

Sorted by the number under Vif TR-FRET (falling): 3 from the list above
molecule	AF4-AF9 inh	rRNA inh HTS	rRNA inh HTS OD600	rRNA inh HTS RFP	Ecoli growth	HNF4A DNA FP	FGF22 binding	Vif TR-FRET	ALR inh
Cc1cccc(NC(=O)NC2(C(=O)NCc3ccco3)CCCCC2)c1	0.8	nt	nt	nt	0.66	2.7	i	4%	-3
Cc1cc(Cl)ccc1NC(=O)C1CCN(S(C)(=O)=O)CC1	-1.0	8	-1	-4.9	0.69	-3.8	i	3%	-8
CCOc1ccc(-c2nn(-c3ccccc3)cc2/C=C(\C#N)S(=O)(=O)c2ccccc2)cc1C	nt	nt	nt	nt	0.84	0.3	nt	1%	-4

Screening results from PubChem.
